# Assay outcomes: PubChem BioAssay, National Center for Advancing Translational Sciences (NCATS)
# LASV entry inh – inhibitors of Lassa virus binding or cell entry. Lassa virus pseudotype entry inhibition, cell reporter; control for the full effect not named in the record. AID 540256. hit rate 1.2% among 300,000. Potency, µM (doses to about 37.9 µM), for inactives: at the top dose activity change, negative = inhibition, hits mostly inhibitors; active means well fitted inhibition curve with a large enough effect; inconclusive means small, poorly fitted or top-dose-only effect, or effect the other way; inactive means flat fitted curve, though single readings scatter; tested in HEK293 cells; further: on the % scale 0 is the no-effect control and ±100 the full control effect; nearly all actives have a fitted effect of over 50% in size; luciferase read-out
# RE007 growth inh – less growth of the S. pombe RE007 Vpr strain; S. pombe RE007 Vpr strain, BacTiter-Glo ATP luminescence, 24 h; control for the full effect not named in the record; Potency, µM (highest dose often 92.2 µM), inactives show at the highest dose activity change, negative = less growth; hit rate 0.21% among 360,000; active = well fitted falling curve with a large enough effect; inconclusive = small, poorly fitted or top-dose-only effect; inactive = no such curve, though single readings can be large or run the other way;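 further: on the % scale 0 is the no-effect control and ±100 the full control effect; nearly all actives have a fitted effect of over 50% in size; the assay follows cell death caused by Vpr and the record does not say whether a fall means rescue or toxicity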
#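 Fission yeast strain RE007, carrying one chromosomally integrated HIV-1 vpr copy, was seeded at OD 0.01 in PMG+AL medium with 23 nL pinned compound. After 24 h at 30 °C and 99% humidity, viability was read by BacTiter-Glo luminescence.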
# SARS PLP yeast – blocks SARS-CoV papain-like protease in a yeast assay | S. cerevisiae expressing SARS-CoV PLpro, growth rescue; control for the full effect not named in the record | Potency, µM (highest dose often 32.9 µM), for the others: at the top dose activity, positive = growth rescue | hit rate 0.19% among 330,000 | AID 485353; further: 0% is about no effect; nearly all actives have a fitted effect of over 55% in size; growth read by luminescence after 48 h
# Cruzain noTriton – blocks cruzain activity in detergent-free assay. purified cruzain, Z-FR-AMC fluorescence, no detergent. hit rate 2.3% among 200,000. Potency, µM, for the others: max response, negative = inhibition, most hits filed as inhibitors. AID 1476; active means well fitted curve in the direction sought with a large enough effect; inconclusive means small, poorly fitted or top-dose-only effect, or another doubt; inactive means no such curve, though single readings can be large; an effect the other way counts as inactive or inconclusive;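 further: plate controls were enzyme without inhibitor for no effect and buffer without enzyme for full effect; nearly all actives have a fitted effect of over 40% in size; top concentration of the series not given in the record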
# Target sequence (P25779 123-467 limits assumed): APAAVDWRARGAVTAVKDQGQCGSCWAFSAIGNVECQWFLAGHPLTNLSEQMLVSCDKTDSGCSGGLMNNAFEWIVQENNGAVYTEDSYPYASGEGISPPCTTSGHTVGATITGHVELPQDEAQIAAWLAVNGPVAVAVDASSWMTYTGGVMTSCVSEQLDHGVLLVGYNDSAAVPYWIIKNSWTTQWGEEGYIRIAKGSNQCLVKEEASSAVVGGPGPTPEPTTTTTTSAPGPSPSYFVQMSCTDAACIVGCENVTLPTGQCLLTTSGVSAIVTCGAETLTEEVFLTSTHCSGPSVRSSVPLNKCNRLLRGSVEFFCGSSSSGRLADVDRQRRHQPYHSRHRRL
#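 Purified cruzain at 1.5 nM, pre-incubated 15 min with compound at room temperature in 100 mM sodium acetate pH 5.5, 5 mM DTT, 0.00005% Triton X-100. Reaction started with 2 uM Z-FR-AMC; AMC fluorescence increase over 60 s gives rate.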
# NS1 inh – inhibitors of influenza NS1 protein function; S. cerevisiae slowed by influenza A NS1, growth recovery by OD600; Potency, µM (top dose mostly 46.1 µM), for inactives: at the top dose activity, positive = more growth; hit rate 0.4% among 270,000; AID 2326; further: actives are rising curves; nearly all actives have a fitted effect of over 50% in size
#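 Compounds were scored for reversing the slow growth caused by influenza A NS1 in S. cerevisiae, measured by optical density at 600 nm. Assay medium contained 2% galactose at pH 6.0; NS1-free yeast of the same strain were the positive control.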
# 2A StopGo – lowers the luciferase signal of an FMDV 2A StopGo reporter | human cells with a luciferase reporter of 2A StopGo recoding; control for the full effect not named in the record | Potency, µM (series often up to 57.9 µM), inactives show top-dose signal change, negative = less light | hit rate 1.2% among 410,000 | AID 1159524; active = well fitted falling curve with a large enough effect; inconclusive = small, poorly fitted or top-dose-only effect; inactive = no such curve, though single readings can be large or run the other way; tested in HEK293T cells; further: on the % scale 0 is the no-effect control and ±100 the full control effect; nearly all actives have a fitted effect of over 45% in size; luciferase light after 4 h
# Cruzain inh Det – blocks cruzain activity in presence of Triton detergent | AID 1478 | hit rate 0.43% among 200,000 | P25779 | purified cruzain, Z-FR-AMC fluorescence, 0.01% Triton | Potency, µM, inactives show max response, negative = inhibition, hits mostly inhibitors; active means well fitted curve in the direction sought with a large enough effect; inconclusive means small, poorly fitted or top-dose-only effect, or another doubt; inactive means no such curve, though single readings can be large; an effect the other way counts as inactive or inconclusive;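 further: plate controls were neutral wells for no effect and buffer without enzyme for full effect; nearly all actives have a fitted effect of over 40% in size; top concentration of the series not given in the record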
#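 Compounds were screened in titration against cruzain (1.5 nM) with 0.01% Triton X-100 to counter colloidal aggregation. Activity was the AMC fluorescence increase over 60 s after adding 2 uM Z-FR-AMC at pH 5.5.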
# Marburg entry inh – blocks Marburg virus binding to or entry into cells. Marburg virus pseudotyped entry inhibition, cell reporter; control for the full effect not named in the record; about a third of the inactives were read at about 46 µM. Potency, µM (titrated, usually from 37.8 µM), for the others: top-dose activity change, negative = inhibition, actives largely listed as inhibitors. hit rate 1.8% among 300,000. AID 540276; active = well fitted inhibition curve with a large enough effect; inconclusive = small, poorly fitted or top-dose-only effect, or effect the other way; inactive = flat fitted curve, though single readings scatter; tested in HEK293 cells; about a fifth of its hits are not listed in these tables; further: on the % scale 0 is the no-effect control and ±100 the full control effect; luciferase read-out
# An asterisk follows results filed as active; ? = inconclusive; . = no result given; & = joins results of further samples; [ ] = remark or other dose. Unless noted, the call rests on the fitted dose curve; in most records, active means well fitted rising curve with a large enough effect; inconclusive means small, poorly fitted or top-dose-only effect; inactive means no such curve, though single readings can be large or run the other way. Potency means the concentration at half of the fitted maximal effect.
SMILES,LASV entry inh,RE007 growth inh,SARS PLP yeast,Cruzain noTriton,NS1 inh,2A StopGo,Cruzain inh Det,Marburg entry inh
Cc1ccc(S(=O)(=O)NNC(=O)c2cc(C)c(C)cc2N)cc1,-1%[46.1 µM],0%,.,.,.,-3%,.,-5%
CCOc1ccc(C(C(=O)NCCOC)N(CCOC)C(=O)CCC(=O)Nc2ccccn2)cc1 (stereo unspecified),-7%[46.1 µM],-4%,-1%,.,0%,45%[activator],.,?
CCOc1ccc2c(=O)c(Oc3ccccc3)c(C)oc2c1,12%,?,0%,-2%,-3%,?,-2.7%,0%
Cc1ccc(CNC(=O)CNS(=O)(=O)c2ccc3c(c2)C(C)(C)C(=O)N3C)cc1,.,22%,-7%,.,4%,15%,.,.
O=C(Nc1cccc(C(F)(F)F)c1)C1CCN(S(=O)(=O)c2cccs2)CC1,11%[46.1 µM],.,.,-10%,.,0%,-9.0%,?
O=C(Nc1ccc(O)cc1)c1c(O)c2c([nH]c1=O)CCCC2,?,-11%,3%,.,.,16%,.,-25%&-25%[46.1 µM]
CCOc1ccc2nc(CN3CCN(Cc4ccsc4)C(CCO)C3)ccc2c1 (stereo unspecified),.,4%,0%,.,0%,0%,.,.
Clc1ccc(CCNc2nc3ccccc3s2)cc1,?,?,-18%,2%,-12%,14%,-6.6%,-76%
COc1ccc(OCC(=O)N/N=C\c2ccco2)cc1,.,3%,-1%,.,-1%,-1%,.,.
Cc1cc(C)nc(N(C#N)CN2C(=O)c3ccccc3C2=O)n1,3%,9%,5%,-8%,7%,6%,1.2%,9%&9%
CCOc1ccc(NC(=O)C(=O)NCc2ccco2)cc1,-11%[46.1 µM],.,.,9%,.,27%,0.7%,.
COc1ccc(CN2CCNC(=O)C2CC(=O)NC2CCC2)c(OC)c1 (stereo unspecified),-2%,-16%,-6%,.,10%,-2%,.,-15%
CC1=C(C(N)=O)C(c2cccc(OCc3ccccc3)c2)n2nnnc2N1 (stereo unspecified),-5%,-4%,-9%,-12%,-1%,-8%,-4.1%,10%
O=C(CNC(=O)c1ccc(Cl)cc1)N/N=C/C=C/c1ccccc1,-19%[46.1 µM],4%,-13%,?,10%,-16%,-1.5%,0%[46.1 µM]
O=C(C1CCC1)N1CCc2cc(S(=O)(=O)NCc3ccc(F)cc3)ccc21,3%[46.1 µM],.,.,-1%,.,31%[activator],-1.1%,5%[46.1 µM]
CCOc1ccc(CCNC(=O)CCc2nc(-c3ccc(OC)cc3)no2)cc1OCC,14%,-3%,-12%,21%,13%,-14%,2.8%,0%&0%[46.1 µM]
Cc1cccc(-n2ncc3c(N)ncnc32)c1,-6%,2%,-9%,2%,-12%,45%[activator],3.4%,-16%[46.1 µM]
Cc1cccc(Nc2nccc(N(C)C)c2C#N)c1,2%[46.1 µM],3%,-1%,.,3%,7%,.,1%[46.1 µM]
Cc1ccccc1S(=O)(=O)Cc1ccc(C(=O)NCCc2ccccc2)o1,-16%&-19%[46.1 µM],0%,-4%,1%,-3%,14%&14%,-2.3%,26%&16%[46.1 µM]
COc1ccc(-c2cc(C(=O)OCC(=O)N3CCOCC3)c3ccccc3n2)cc1,-9%[46.1 µM],1%,-69%,.,.,-1%,.,?
O=C(c1sc2ccccc2c1Cl)N(Cc1ccccc1Cl)C1CCS(=O)(=O)C1 (stereo unspecified),-17%,3%,5%,?,30%,?,-2.2%,?
COc1ccc(/C=N/N=C2/NC(=O)C(CC(=O)NC(N)=O)S2)cc1 (stereo unspecified),?,12%,1%,.,.,15%,.,3%[46.1 µM]
Cn1c(SCc2ccc(F)cc2)nc2ccc(C(=O)NCc3ccc(F)cc3)cc21,.,.,.,-5%,.,?,-5.8%,?
Cc1ccc(NC(=O)C2CCCN(c3ncnc4c3nc3n4CCCCC3)C2)cc1Cl (stereo unspecified),-20%[46.1 µM],1%,-7%,.,-25%,-29%,.,?
COc1cc(C(=O)OC2CC3CCC2(C)C3(C)C)ccc1OC(C)=O (stereo unspecified),.,20%,-3%,.,-3%,38%[activator],.,.
O=C(CSc1nnc(-c2ccccc2F)o1)Nc1cccc(C(F)(F)F)c1,9%[46.1 µM],.,.,-10%,.,2%,-11%,11%[46.1 µM]
Cc1ccc(NC(=O)CO/N=C/c2ccc(N(C)C)cc2)cc1,-6%,-8%,-16%,-4%,-5%,0%,-12%,?
COc1ccc(C)cc1NC(=O)c1c2c(nc3ccccc13)C(=O)N(C1CCCCC1)C2,?,.,.,?,.,-22%,-2.9%,.
CC(C)N1CC(C(=O)Nc2ccc(Cl)c([N+](=O)[O-])c2)CC1=O (stereo unspecified),.,-10%,4%,.,17%,-1%,.,.
COc1ccc(OC)c(NC(=O)c2nc(SCc3ccccc3F)ncc2Cl)c1,13%[46.1 µM],.,.,15%,.,-17%,2.8%,14%[46.1 µM]
Cc1c(Cl)cccc1NS(=O)(=O)c1ccc(-c2ccc(=O)[nH]n2)o1,-27%[46.1 µM],12%,-3%,.,13%,8%,.,?
Cc1ccc(S(=O)(=O)CCC(=O)OCc2cc(C)ccc2C)cc1,17%,0%,-1%,.,.,-19%,.,24%[46.1 µM]
Cc1ccccc1S(=O)Cc1ccc(C(=O)N2CCN(c3cccc(C)c3C)CC2)o1 (stereo unspecified),?,.,.,?,.,-25%,-7.3%,.
CCNc1nc(NCC)nc(SCCOC(=O)Nc2ccc(Cl)cc2Cl)n1,-26%,16%,25%,7%,-4%,-13%,-5.0%,16%
CCOC(=O)c1sc2ncnc(N3CCN(CC)CC3)c2c1C,5%,9%,8%,.,.,2%,.,-6%[46.1 µM]
CCc1nnc(NC(=O)c2ccc(-c3ccc(F)cc3)o2)s1,-4%[46.1 µM],-12%,-1%,.,.,-4%,.,11%[46.1 µM]
CCc1ccc(/C=C2\C(=N)N3N=C(CC(=O)N4CCCCC4)SC3=NC2=O)cc1,0%[46.1 µM],2%,-6%,.,2%,2%,.,-1%[46.1 µM]
O=C(COc1cccc2ccccc12)NNC(=O)C1CCCO1 (stereo unspecified),20%,-6%,-18%,-13%,4%,-8%,0.6%,-10%
Cc1nn(CC(=O)OC(C)C(=O)Nc2ccccc2[N+](=O)[O-])c(C)c1[N+](=O)[O-] (stereo unspecified),5%,13%,0%,-1%,-30%,-10%,-1.1%,?
O=C(NCCNC(=O)C(F)(F)F)c1ccncc1,4%,4%,3%,-4%,6%,-4%,5.9%,-7%
Cc1ccc(S(=O)(=O)N2CCC(=O)N(CCOC(=O)Nc3cccc(Cl)c3)CC2)cc1,-1%,8%,6%,?,-10%,9%,-2.8%,-1%
CCC(C)(C(=O)Nc1ccc2c(c1)OCCO2)N(C(C)=O)c1ccc(C(N)=O)cc1 (stereo unspecified),-1%,-17%[3.69 µM],-18%,-2%,-7%,-25%,12%,15%
CCOC(=O)c1c(C)[nH]c(C)c1S(=O)(=O)N1CCC(C(=O)N2CCN(c3cccc(C)c3C)CC2)CC1,-30%[46.1 µM],.,.,?,.,-22%,-1.9%,.
CC(=O)Nc1ccc2c(c1)C(C)(C)C(C)N2C (stereo unspecified),-3%[46.1 µM],-15%,-1%,.,-6%,-5%,.,9%[46.1 µM]
Cc1ccc(S(=O)(=O)N2CCOCC2)cc1NC(=O)CSc1nc(N)cc(=O)[nH]1,.,10%,0%,.,8%,-3%,.,.
CCOC(=O)N1CCN(c2c(NCCN3CCN(c4ccccc4F)CC3)c(=O)c2=O)CC1,?,13%,-1%,.,-1%,-9%,.,7%[46.1 µM]
CC(=O)c1c(C)[nH]c(C(=O)Nc2ccc(C)cc2Br)c1C,?,-8%,-8%,.,-3%,25%,.,?
COC(=O)c1sc(NC(=O)C2CCCO2)c(C(=O)OC)c1C (stereo unspecified),4%,-15%,-7%,?,-38%,-26%,-3.9%,-6%
OC(CNc1ccccc1)COc1ccc(OCC(O)CNc2ccccc2)cc1 (stereo unspecified),?,4%,-17%,14%,17%,?,-6.8%,11µM*
Cc1ccccc1Cn1nc(C)c(NC(=O)/C=C/c2cnn(C)c2)c1C,5%,20%,16%,13%,4%,?,-3.5%,?
COc1cc(CC(=O)Oc2ccc3c(c2)OCO3)cc(OC)c1OC,3%,-7%,0%,-1%,-2%,-24%,1.1%,7%
CCOC(=O)C1CN(S(=O)(=O)c2ccc(OC)cc2)c2ccccc2O1 (stereo unspecified),?,10%,-2%,.,-14%,-11%,.,?
Cc1ccc(Nc2c(N)c(=O)oc3ccccc23)cc1,?,?,-39%,-19%,-4%,-12%,-16%,?
CSCc1c(C(=O)OCC(=O)c2ccc[nH]2)oc2ccccc12,0%,3%,3%,.,.,-9%,.,22%
COc1cccc(-c2nn[nH]n2)c1O,-3%,9%,11%,11%,2%,21%,-0.5%,-4%
Cc1cc(C)c(NC(=O)Cn2c(SCC(=O)NCc3ccccc3)nc3ccccc32)c(C)c1,-13%[46.1 µM],.,.,7%,.,-5%,1.5%,.
Cc1ccc(-c2nnc(Nc3ccc(Br)cc3)c3ccccc23)cc1S(=O)(=O)N1CCCCC1,?,.,.,-6%,.,-12%,0.5%,.
COc1ccc(Oc2nc3ccccc3nc2C(F)(F)F)cc1,-1%,18%,0%,-2%,-26%,-18%,-2.0%,1%
Cc1ccc(-c2cn3c(n2)sc2cc(C(=O)N4CCCCC4)ccc23)cc1,9%[46.1 µM],.,.,1%,.,?,0.0%,.
O=C(Nc1cccc(S(=O)(=O)N2CCOCC2)c1)c1cc([N+](=O)[O-])ccc1N1CCOCC1,0%[46.1 µM],8%,11%,.,.,-11%,.,-18%
# (more compounds)
SMILES,LASV entry inh,RE007 growth inh,SARS PLP yeast,Cruzain noTriton,NS1 inh,2A StopGo,Cruzain inh Det,Marburg entry inh
O=C(Nc1cc2c(cc1Br)OCCCO2)c1cccnc1,17%,-10%,2%,.,25%,41%[activator],.,?
O=C(NCCCN1CCN(c2ccccc2F)CC1)c1sc2ncccc2c1-n1cccc1,-10%[46.1 µM],.,.,22%,.,-11%,-4.1%,.
O=C/C(=C\Nc1ccc(Br)cc1)c1nc2ccccc2o1,-11%,-10%,1%,.,1%,3%,.,17%[14.2 µM]
Cc1ccc(S(=O)(=O)Oc2ccccc2/C=C2/SC(=O)NC2=O)cc1,-11%,-14%,-1%,.,-2%,-16%,.,-14%
Cc1ccc(-n2ncc3c(NCc4cccnc4)ncnc32)c(C)c1,?,33%,-32%,2%,23%,?,1.3%,?
CCn1c(SCC(=O)NC2CCCCC2)nnc1C(CO)NC(=O)c1ccccc1 (stereo unspecified),1%,-15%,24%,.,-4%,-27%,.,-3%
